Env fusion inh – inhibitors of HIV Env-mediated cell fusion; actives 1.1% (n = 360,000); inhibition, % at 12.3 µM; HeLa-JRFL Env/CEM21 cell fusion, luciferase;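 active = mean replicate inhibition score of at least 50 and every replicate individually at or above 50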;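 also: 0% = plate neutral controls and 100% = maraviroc near 300 nM; one replicate is shown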
Rce1 inh – yeast Ras-converting enzyme inhibition; actives 0.27% (n = 290,000); AID 2563; Q03530; yeast membranes, quenched prenylated peptide cleavage fluorescence; calls only;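 active = fall in fluorescence gain of 50% or more versus controls, with final raw signal at or below 3038400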;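 also: plate controls were neutral control wells for no effect and wells lacking membranes for full effect; tested at 10 µM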
Target sequence (Q03530 whole entry, looked up): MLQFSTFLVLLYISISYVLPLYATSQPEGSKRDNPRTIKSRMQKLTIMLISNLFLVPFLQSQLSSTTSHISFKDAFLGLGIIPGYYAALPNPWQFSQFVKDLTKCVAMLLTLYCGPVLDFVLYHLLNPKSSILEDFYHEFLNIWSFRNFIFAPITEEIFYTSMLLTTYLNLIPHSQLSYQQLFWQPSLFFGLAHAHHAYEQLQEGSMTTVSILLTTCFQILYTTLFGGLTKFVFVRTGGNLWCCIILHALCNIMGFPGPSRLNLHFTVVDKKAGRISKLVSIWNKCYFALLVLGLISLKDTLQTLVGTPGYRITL
UUG fidelity – modulators of start codon recognition fidelity in yeast. S. cerevisiae UUG-firefly luciferase reporter, luminescence/redox ratio. activity score, % at 18.7 µM. actives 0.13% (n = 350,000). AID 602363;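 active = replicate mean at a twofold rise or more, about +100% in these data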;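 also: firefly luciferase made from a UUG start codon reports start codon fidelity; reporter light over untreated wells divided by growth signal over untreated wells; some hits fall short of that in this replicate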
MT1-MMP act inh – MT1-MMP (human) activation inhibition; P50281; HT1080 RFP-PRO-GFP cells, GFP/RFP ratio fluorescence, overnight; percent of plate control window, DMSO zero; GFP/RFP ratio change, % at 20 µM; actives 0.061% (n = 360,000); AID 651647;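 active = GFP/RFP ratio change of at least 30% with cell ATP level not reduced by more than half and red fluorescence within 50% of control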; also: strong numbers were not always called active
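Assay system – RFP-PRO-GFP reporter HT1080 cells · Compound dosing – single dose of 20 µM compound, 1% DMSO final · Incubation – overnight compound exposure at 37 °C · Measure – GFP/RFP fluorescence ratio · Benchmarks – DMSO wells and RFP-L50D-GFP cells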
eIF4H inh – inhibitors of RNA binding by human eIF4H; eIF4H fluorescence polarization binding assay; inhibition, % at 35 µM; actives 0.94% (n = 290,000); AID 2012;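 active = 50% or more with normal probe brightness, or confirmed in later tests; about a fifth of its hits are not listed in these tables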;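 also: calls also rest on retests at 20 µM and on dose response follow-up; 0% = protein and probe with vehicle and 100% = probe without protein; strong numbers were not always called active; many hits fall short of the cut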
CSC inhib – blocks cancer stem cells; cancer stem cell-like cells viability, luminescence; actives 1.1% (n = 300,000); AID 2717; inhibition, % at 7.5 µM;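 active = mean at 75% or more and at least half the replicates too; tested in HMLE shEcad cells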;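 also: 0% = median of negative and 100% = median of positive control wells; the first replicate is given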
PABP FP inh – PABP-poly(A) binding inhibition; P11940; PABP-poly(A) RNA binding, fluorescence polarization; inhibition, % at 35 µM; actives 1% (n = 290,000); AID 2014;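 active = 50% or more with normal probe brightness, or confirmed in later tests; about a fifth of its hits are not listed in these tables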;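 also: calls also rest on retests at 20 µM and on dose response follow-up; controls were probe without protein and protein plus probe with vehicle; some compounds called inactive have numbers as strong as hits; many hits fall short of the cut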
eIF4H inh retest – second read-out of eIF4H inh, no call of its own (marks repeat the call); inhibition, %; compound at 20 µM; confirmation average;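 mean of two retest wells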
PABP FP inh retest – also measured in PABP FP inh; calls as there; inhibition, %; compound at 20 µM; confirmation repeats;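 mean of two retest wells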
MT1-MMP act inh RFP – further read-out of MT1-MMP act inh, marked with its call; RFP signal change, %; measured here: RFP expression control read;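 0 = vehicle wells; hits needed this value within 50% of zero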
An asterisk follows results filed as active; i = inactive; nt = not tested or not shown.

Start of the data: the first 16 compounds, to show the layout:
SMILES | Env fusion inh | Rce1 inh | UUG fidelity | MT1-MMP act inh | MT1-MMP act inh RFP | eIF4H inh | CSC inhib | PABP FP inh | others
Cc1ccccc1NC(=O)CNC(=O)Cc1cccc2ccccc12 | -1 | i | -15 | -3 | 2 | nt | -4 | nt
CCOC(=O)Cc1csc(NC(=O)CSc2nnc(C(C)C)n2C)n1 | nt | i | -11 | 3 | 4 | 6 | 11 | 14
COc1ccc(NC(=O)C(C)N2C(=O)c3ccccc3C2=O)c(OC)c1 (stereo unspecified) | 8 | i | -4 | -4 | -4 | nt | -4 | nt
O=C(NCCC1CCCCN1S(=O)(=O)c1cccs1)C(=O)Nc1ccccc1 (stereo unspecified) | nt | i | -5 | 2 | 1 | nt | -13 | nt
Cc1ccccc1OCC(=O)NNC(=O)c1ccc2c(=O)n3c(nc2c1)CCC3 | -85 | i | -1 | -2 | 2 | nt | 5 | nt
COC(=O)CN1C(=O)[C@H]2[C@@H](c3ccc(C)o3)N3C(=O)CN(CCO)C(=O)[C@@]3(Cc3ccccc3)[C@H]2C1=O | 0 | i | -11 | -1 | -1 | -3 | 0 | 10
Cc1ccc(S(=O)(=O)N2CCOCC2)cc1C(=O)N(Cc1nnc(-c2ccccc2Cl)o1)C1CC1 | nt | i | 0 | 2 | 0 | -5 | 8 | 0
Cc1cc2occ(CC(=O)NC3CCCc4ccccc43)c2cc1C (stereo unspecified) | 4 | i | nt | -6 | -2 | -19 | -5 | -6
CC1=NN(C(C#N)c2cccc([N+](=O)[O-])c2)C(C)(C)C1 (stereo unspecified) | 16 | i | -27 | 3 | 5 | 2 | -15 | 4
COc1cccc(C2CC(=O)N3CN(c4ccccc4F)CSC3=C2C#N)c1 (stereo unspecified) | 0 | i | -26 | 4 | 3 | 20 | 11 | 50
CCOC(=O)[C@H]1[C@H]2COc3ccc(OC)cc3[C@@H]2N2C(=O)CN(Cc3ccc(Cl)cc3)C(=O)[C@@]12C | 63* | nt | -18 | -9 | -4 | nt | 6 | nt
COc1ccc(NC(=O)C2=NN(C3CCS(=O)(=O)C3)C(=O)CC2)cc1S(N)(=O)=O (stereo unspecified) | 13 | nt | -14 | 0 | 1 | nt | -10 | nt
CCOC(=O)c1cc(-c2ccc(C)cc2)n(CCC(=O)NCCN(C)C)c1C | -16 | i | -13 | 1 | -2 | 0 | 0 | -8
O=C(c1ccccc1NS(=O)(=O)c1ccc(F)cc1)N1CCCC1 | -49 | i | -14 | 0 | 3 | -1 | -3 | 0
CC(=O)c1cc(-c2ccccc2)n(CC(=O)N2CCC(C)CC2)c1C | nt | i | 13 | 0 | 1 | -4 | -1 | -11
COc1ccc(C(C)C)cc1S(=O)(=O)N1CCC(C(=O)NCC2CCCO2)CC1 (stereo unspecified) | -4 | i | -8 | -1 | 0 | 6 | -33 | -10

The listing (from the top)
SMILES | Env fusion inh | Rce1 inh | UUG fidelity | MT1-MMP act inh | MT1-MMP act inh RFP | eIF4H inh | CSC inhib | PABP FP inh | others
Cc1ccccc1NC(=O)CNC(=O)Cc1cccc2ccccc12 | -1 | i | -15 | -3 | 2 | nt | -4 | nt
CCOC(=O)Cc1csc(NC(=O)CSc2nnc(C(C)C)n2C)n1 | nt | i | -11 | 3 | 4 | 6 | 11 | 14
COc1ccc(NC(=O)C(C)N2C(=O)c3ccccc3C2=O)c(OC)c1 (stereo unspecified) | 8 | i | -4 | -4 | -4 | nt | -4 | nt
O=C(NCCC1CCCCN1S(=O)(=O)c1cccs1)C(=O)Nc1ccccc1 (stereo unspecified) | nt | i | -5 | 2 | 1 | nt | -13 | nt
Cc1ccccc1OCC(=O)NNC(=O)c1ccc2c(=O)n3c(nc2c1)CCC3 | -85 | i | -1 | -2 | 2 | nt | 5 | nt
COC(=O)CN1C(=O)[C@H]2[C@@H](c3ccc(C)o3)N3C(=O)CN(CCO)C(=O)[C@@]3(Cc3ccccc3)[C@H]2C1=O | 0 | i | -11 | -1 | -1 | -3 | 0 | 10
Cc1ccc(S(=O)(=O)N2CCOCC2)cc1C(=O)N(Cc1nnc(-c2ccccc2Cl)o1)C1CC1 | nt | i | 0 | 2 | 0 | -5 | 8 | 0
Cc1cc2occ(CC(=O)NC3CCCc4ccccc43)c2cc1C (stereo unspecified) | 4 | i | nt | -6 | -2 | -19 | -5 | -6
CC1=NN(C(C#N)c2cccc([N+](=O)[O-])c2)C(C)(C)C1 (stereo unspecified) | 16 | i | -27 | 3 | 5 | 2 | -15 | 4
COc1cccc(C2CC(=O)N3CN(c4ccccc4F)CSC3=C2C#N)c1 (stereo unspecified) | 0 | i | -26 | 4 | 3 | 20 | 11 | 50
CCOC(=O)[C@H]1[C@H]2COc3ccc(OC)cc3[C@@H]2N2C(=O)CN(Cc3ccc(Cl)cc3)C(=O)[C@@]12C | 63* | nt | -18 | -9 | -4 | nt | 6 | nt
COc1ccc(NC(=O)C2=NN(C3CCS(=O)(=O)C3)C(=O)CC2)cc1S(N)(=O)=O (stereo unspecified) | 13 | nt | -14 | 0 | 1 | nt | -10 | nt
CCOC(=O)c1cc(-c2ccc(C)cc2)n(CCC(=O)NCCN(C)C)c1C | -16 | i | -13 | 1 | -2 | 0 | 0 | -8
O=C(c1ccccc1NS(=O)(=O)c1ccc(F)cc1)N1CCCC1 | -49 | i | -14 | 0 | 3 | -1 | -3 | 0
CC(=O)c1cc(-c2ccccc2)n(CC(=O)N2CCC(C)CC2)c1C | nt | i | 13 | 0 | 1 | -4 | -1 | -11

2 compounds drawn at random from the list so far:
SMILES | Env fusion inh | Rce1 inh | UUG fidelity | MT1-MMP act inh | MT1-MMP act inh RFP | eIF4H inh | CSC inhib | PABP FP inh | others
O=C(c1ccccc1NS(=O)(=O)c1ccc(F)cc1)N1CCCC1 | -49 | i | -14 | 0 | 3 | -1 | -3 | 0
COc1cccc(C2CC(=O)N3CN(c4ccccc4F)CSC3=C2C#N)c1 (stereo unspecified) | 0 | i | -26 | 4 | 3 | 20 | 11 | 50

The listing continues:
SMILES | Env fusion inh | Rce1 inh | UUG fidelity | MT1-MMP act inh | MT1-MMP act inh RFP | eIF4H inh | CSC inhib | PABP FP inh | others
COc1ccc(C(C)C)cc1S(=O)(=O)N1CCC(C(=O)NCC2CCCO2)CC1 (stereo unspecified) | -4 | i | -8 | -1 | 0 | 6 | -33 | -10
O=C(Nc1ccc(Oc2ccc(S(=O)(=O)N3CCOCC3)cn2)cc1)c1ccco1 | -53 | i | -22 | -2 | -4 | nt | nt | nt
CNC(=S)N(CCN(C)C)Cc1cc2cc3c(cc2[nH]c1=O)OCO3 | 0 | i | -13 | -1 | -4 | 0 | -11 | -1
N#C/C(=N\Nc1cccc(C(F)(F)F)c1)C(=O)c1csc(-c2cccnc2)n1 | 6 | i | nt | 19 | -25 | -7 | 66 | 11
O=C(c1cc2sccc2n1Cc1ccc(F)cc1)N1CCCc2ccccc21 | -1 | i | -9 | -14 | -11 | 4 | 36 | -10
O=C(CNc1cccc(Cl)c1)NNC(=S)NCc1ccccc1 | 8 | i | -36 | 4 | 0 | 14 | 14 | -3
Nc1cc(N)cc(-c2nc3ccccc3o2)c1 | -24 | i | 6 | 1 | 11 | nt | 14 | nt
CCOc1ccc2c(c1)C(C)=CC(C)(C)N2S(=O)(=O)c1ccc(NC(C)=O)cc1 | -135 | i | -4 | 18 | -1 | 7 | 53 | -1
COc1ccccc1N(Cc1cc(=O)[nH]c2ccccc12)C(=O)c1ccccc1 | -7 | i | nt | -10 | 0 | -2 | -13 | -14
CCn1cc(CCCC(=O)NCc2ccccc2OC)c2ccccc21 | 13 | i | -13 | -3 | -2 | 2 | 2 | 2
Cc1cccc(NC(=O)CSc2nnc(-c3ccco3)c(-c3ccco3)n2)c1 | -1 | nt | nt | -1 | 1 | 89 | nt | 73* | eIF4H inh retest=37;PABP FP inh retest=77*
CCOc1ccc2[nH]cc(S(=O)(=O)c3ccc(F)cc3)c(=O)c2c1 | 23 | i | -11 | -3 | -18 | -9 | -10 | 6
Cn1c(Cn2cnc([N+](=O)[O-])n2)nnc1SCC(=O)Nc1ccccc1 | nt | i | -14 | 2 | 4 | -10 | 1 | 5
COc1cc(C(=O)Nc2ccccc2C2COC(=O)C2=N)cc(OC)c1OC (stereo unspecified) | -1 | i | nt | 7 | 5 | -3 | 3 | 8
CC1(C)CC(=O)C=C(c2ccc(Cl)c(C(F)(F)F)c2)C1 | -6 | nt | 3 | 1 | 0 | nt | -2 | nt
OCCSc1ncnc2c1oc1ccccc12 | nt | i | nt | 2 | -9 | -5 | nt | 1

Screening data (PubChem BioAssay)
